# Ecoli rRNA inh: inhibitors of bacterial rRNA selective over humanized ribosomes. E. coli WT GFP vs humanized-ribosome RFP mutants, fluorescence, 24 h; hits give low values; DMSO median 0, no signal -100. GFP signal change (wild-type ribosome), % (test concentration not listed). actives 1.6% (n = 350,000). AID 720706;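 active = significant combined selectivity score with lowered wild-type GFP, culture density cut under 30%, mutant RFP and density less affected; inactive = any of these conditions unmet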; also: one replicate is shown; some compounds called inactive have numbers as strong as hits
# AF4-AF9 inh: inhibitors of human MLL-AF4/AF9 interaction; P42568; inhibition, % at 10 µM; AlphaScreen, biotin-AF4 peptide binding to FLAG-AF9; actives 0.47% (n = 350,000);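 active = every replicate reaching a set inhibition limit, whatever the replicate mean, cut at about 25% in these data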;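 also: 0% = plate neutral control median and 100% = total signal loss; the record names both 10 and 1 µM as test concentration; the first replicate is given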
# Target sequence (P42568 whole entry, looked up): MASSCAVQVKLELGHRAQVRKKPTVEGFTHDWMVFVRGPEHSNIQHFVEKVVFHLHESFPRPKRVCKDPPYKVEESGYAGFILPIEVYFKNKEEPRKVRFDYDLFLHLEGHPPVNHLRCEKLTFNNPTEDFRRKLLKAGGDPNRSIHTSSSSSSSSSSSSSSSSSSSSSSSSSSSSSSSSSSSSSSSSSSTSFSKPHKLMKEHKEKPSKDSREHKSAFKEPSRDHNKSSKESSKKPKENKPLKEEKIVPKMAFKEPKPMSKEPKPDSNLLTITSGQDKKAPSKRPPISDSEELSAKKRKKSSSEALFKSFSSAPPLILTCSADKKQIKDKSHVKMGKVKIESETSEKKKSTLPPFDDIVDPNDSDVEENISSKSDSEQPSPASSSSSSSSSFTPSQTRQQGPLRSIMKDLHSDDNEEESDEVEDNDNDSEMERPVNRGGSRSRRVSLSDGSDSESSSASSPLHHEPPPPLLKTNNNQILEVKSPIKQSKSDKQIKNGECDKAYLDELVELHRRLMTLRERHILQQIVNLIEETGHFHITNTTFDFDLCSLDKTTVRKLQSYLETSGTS
# Ecoli rRNA inh OD600: further read-out of Ecoli rRNA inh, marked with its call; OD600 change, %; measured here: OD600 growth;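 optical density of the mix in the first replicate; 0 = DMSO median and -100 = no signal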
# Ecoli rRNA inh RFP: further read-out of Ecoli rRNA inh, marked with its call; RFP signal change, %; measured here: RFP humanized mutant strains;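 first replicate; 0 = DMSO median and -100 = no signal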
# * = called active by the depositor; & = joins results of further samples.
SMILES,Ecoli rRNA inh,Ecoli rRNA inh OD600,Ecoli rRNA inh RFP,AF4-AF9 inh
C[C@H]1CN([C@@H](C)CO)C(=O)c2ccccc2-c2ccccc2CO[C@@H]1CN(C)S(=O)(=O)c1ccc(C(F)(F)F)cc1,1.7,5.5,-0.1,2.1
CO[C@@H]1CN(C)C(=O)c2cc(NC(=O)NC(C)C)ccc2OC[C@H](C)N(C(=O)C2CCC2)C[C@@H]1C,1.6,2.1,-1.2,0.9
C[C@H]1CN([C@@H](C)CO)C(=O)c2cc(NS(=O)(=O)c3ccccc3)ccc2O[C@H]1CN(C)CC1CC1,-1.2,-5.1,-1.0,-0.1
CN1c2ccc(-c3ccccc3)cc2[C@@H]2[C@@H](CCN2C(=O)Cc2ccccc2)[C@H]1CO,-36.2,-62.4,9.3,-9.4
CNC[C@H]1Oc2ccc(NC(=O)Nc3cccc4ccccc34)cc2C(=O)N([C@H](C)CO)C[C@@H]1C,5.8,7.2,0.1,0.4
COCC(=O)Nc1ccc2c(c1)[C@H]1C[C@@H](CC(=O)NCc3cccc(F)c3)O[C@H](CO)[C@H]1O2,-0.3,-3.0,-0.8,0.9
C[C@@H]1CN([C@H](C)CO)C(=O)c2cc(NC(=O)Cc3ccccc3)ccc2O[C@@H]1CN(C)S(C)(=O)=O,0.8,-8.1,-2.3,-3.2
CO[C@H]1CN(C)C(=O)c2ccc(NC(=O)C3CC3)cc2OC[C@H](C)N(C(=O)Cc2ccccn2)C[C@@H]1C,2.4,0.8,1.6,-0.6
COc1cccc(C(=O)Nc2ccc3c(c2)C(=O)N(C)C[C@@H](OC)[C@@H](C)CN(C)[C@@H](C)CO3)c1,2.3,-0.1,1.2,-2.5
O=C(C[C@@H]1CC[C@@H]2[C@H](COC[C@H](O)CN2Cc2ccccc2F)O1)N[C@@H]1CCN(Cc2ccccc2)C1,-2.9,2.3,-3.4,3.7
COc1ccc(-c2ccc3c(c2)O[C@@H](CN(C)C)[C@@H](C)CN([C@@H](C)CO)S3(=O)=O)cc1,6.1,5.3,0.7,-0.1
C/C=C/c1cccc(-c2nc(C(=O)NCc3ccc(OC)cc3)cc3c2[C@H](CCO)N([S@@](=O)C(C)(C)C)C3)c1,-1.6,9.3,26.4,2.0
CO[C@@H]1CN(C)C(=O)c2ccc(NC(=O)Nc3cccc(Cl)c3)cc2OC[C@H](C)NC[C@H]1C,-0.3&-3.7,1.7&-5.6,6.0&3.0,8.3
C[C@H](CO)N1C[C@H](C)[C@H](CN(C)C(=O)Nc2ccc3c(c2)OCO3)Oc2ccc(NC(=O)Nc3ccc(F)cc3)cc2CC1=O,0.0,-5.2,-2.8,2.6
C[C@H]1CN([C@@H](C)CO)C(=O)Cc2cc(NC(=O)Nc3ccc4c(c3)OCO4)ccc2O[C@H]1CN(C)S(=O)(=O)c1ccc(Cl)cc1,1.8,-5.3,3.0,7.8
O=C(NC1CCCC1)N1CC(=O)N2[C@@H](CO)[C@H](c3ccc(/C=C/c4ccccc4)cc3)[C@@H]2C1,-24.7,-54.2,18.6,5.4
COc1ccc2c3c([nH]c2c1)[C@@H](CO)N(S(C)(=O)=O)CC31CN(C(=O)c2ccccc2)C1,-1.9,1.9,-2.8,-2.4
O=C(C[C@H]1C[C@H]2c3cc(NC(=O)C4CCOCC4)ccc3O[C@H]2[C@@H](CO)O1)NCc1ccc(Oc2ccccc2)cc1,-6.0,-5.6,-6.6,-5.2
Cc1noc(C)c1NC(=O)Nc1ccc2c(c1)C(=O)N([C@@H](C)CO)C[C@@H](C)[C@H](CN(C)Cc1ccc(Oc3ccccc3)cc1)O2,1.7,0.0,2.2,9.8
C[C@@H]1CN([C@@H](C)CO)C(=O)c2cc(NS(=O)(=O)c3ccc(Cl)cc3)ccc2O[C@@H](C)CCCCO[C@@H]1CN(C)Cc1ccccc1,-2.7,-30.0,8.4,1.2
CC1=C(C(=O)N2CCOCC2)CC(CC(=O)NCCCN(C)C)C(=O)N1Cc1ccc(C(C)(C)C)cc1 (configuration not stated),1.8,1.6,-2.9,-6.9
Cc1ccc(S(=O)(=O)N(C)C[C@@H]2Oc3ccc(NC(=O)Cc4cn(C)c5ccccc45)cc3CC(=O)N([C@@H](C)CO)C[C@H]2C)cc1,-5.3,-3.2,-1.2,-0.6
Cc1ccccc1CN(C)C[C@H]1OCc2cnnn2CCCC(=O)N([C@H](C)CO)C[C@H]1C,-2.0,4.0,1.0,-7.2
CCN(CC)S(=O)(=O)c1cccc(NC(=O)c2ccc(S(=O)(=O)N3CCCC3)cc2)c1,2.2,12.5,0.8,2.3
C[C@@H]1CCCCO[C@@H](CN(C)C)[C@@H](C)CN([C@@H](C)CO)C(=O)c2cc(NS(=O)(=O)c3cn(C)cn3)ccc2O1,5.2,2.1,-0.3,-12.3

# Whole records from above. Screens in order: Ecoli rRNA inh	Ecoli rRNA inh OD600	Ecoli rRNA inh RFP	AF4-AF9 inh
# C/C=C/c1cccc(-c2nc(C(=O)NCc3ccc(OC)cc3)cc3c2[C@H](CCO)N([S@@](=O)C(C)(C)C)C3)c1 in the list: -1.6	9.3	26.4	2.0
# C[C@@H]1CCCCO[C@@H](CN(C)C)[C@@H](C)CN([C@@H](C)CO)C(=O)c2cc(NS(=O)(=O)c3cn(C)cn3)ccc2O1 in the list: 5.2	2.1	-0.3	-12.3
# CNC[C@H]1Oc2ccc(NC(=O)Nc3cccc4ccccc34)cc2C(=O)N([C@H](C)CO)C[C@@H]1C in the list: 5.8	7.2	0.1	0.4
# Cc1ccc(S(=O)(=O)N(C)C[C@@H]2Oc3ccc(NC(=O)Cc4cn(C)c5ccccc45)cc3CC(=O)N([C@@H](C)CO)C[C@H]2C)cc1 in the list: -5.3	-3.2	-1.2	-0.6
# C[C@@H]1CN([C@@H](C)CO)C(=O)c2cc(NS(=O)(=O)c3ccc(Cl)cc3)ccc2O[C@@H](C)CCCCO[C@@H]1CN(C)Cc1ccccc1 in the list: -2.7	-30.0	8.4	1.2

# The listing continues.
SMILES,Ecoli rRNA inh,Ecoli rRNA inh OD600,Ecoli rRNA inh RFP,AF4-AF9 inh
COc1ccc(CN(C)C[C@H]2Oc3c(NC(=O)NC(C)C)cccc3C(=O)N([C@@H](C)CO)C[C@@H]2C)cc1,0.0,0.2,-2.2,0.3
Cc1cccc(C)c1NC(=O)C1c2ccccc2OCC(=O)N1Cc1ccccc1 (configuration not stated),-10.0,-13.1,3.9,2.1
COc1ccc(Cl)cc1-c1cc(C(=O)NCc2cccs2)[nH]n1,-25.2,-52.0,29.1,-0.3
C[C@H]1CN([C@@H](C)CO)C(=O)c2cc(NC(=O)C3CC3)ccc2O[C@H]1CN(C)S(=O)(=O)c1ccccc1,0.3,2.3,-0.8,-1.1
C[C@@H]1CN([C@@H](C)CO)C(=O)Cc2cc(NC(=O)NC3CCCCC3)ccc2O[C@H]1CN(C)Cc1ccc(Oc2ccccc2)cc1,-2.6,-3.2,8.0,3.0
O=C(Nc1ccc(Cl)c(Cl)c1)N[C@@H]1CC[C@H](CCn2cc(C3CC3)nn2)O[C@H]1CO,-8.8,-13.2,1.5,1.5
COc1ccc2c3c(n(C)c2c1)[C@H](CO)N(C)CC31CN(S(=O)(=O)c2cccc(C)c2)C1,-8.0,-20.2,-0.4,4.4
O=C(C[C@H]1CC[C@@H](NS(=O)(=O)c2ccc(F)cc2)[C@@H](CO)O1)NCCN1CCCCC1,0.6,4.0,-1.2,-0.9
CCS(=O)(=O)N1CC(=O)N2[C@H](CO)[C@@H](c3ccc(-c4ccccc4)cc3)[C@@H]2C1,1.5,8.8,-2.8,-1.8
CC(C)Oc1ccc(CN2CCC2(C)C(=O)Nc2cccc(Oc3ccccc3)c2)cc1 (configuration not stated),17.1,5.3,-0.2,-1.5
CCCN1C[C@H](C)[C@H](OC)CN(C)C(=O)c2cc(NC(=O)C3CCOCC3)ccc2OC[C@H]1C,0.4,1.6,-0.6,-2.4
C[C@H](O)C#Cc1cnc2c(c1)C(=O)N([C@H](C)CO)C[C@H](C)[C@H](CN(C)Cc1cccc(F)c1)O2,3.2,2.5,-0.9,-3.1
O=C(Cc1ccccc1)N1C[C@H]2[C@@H](c3ccccc31)[C@@H](CO)N2C(=O)c1ccc(F)cc1,4.6,7.0,-0.6,-0.6
CC(C)=CCOc1c2ccoc2c(OCC=C(C)C)c2oc(=O)ccc12,-17.6,-15.8,-15.4,-1.6
O=C(COc1ccc(CNC[C@H]2O[C@@H](n3ccc(=O)[nH]c3=O)[C@H](O)[C@@H]2O)cc1)Nc1nccs1,0.8,12.7,-4.4,-1.1
Cc1ccccc1S(=O)(=O)NCC[C@@H]1CC[C@H](NS(=O)(=O)c2ccccc2C)[C@@H](CO)O1,-1.2,2.7,-1.0,0.4
Cc1noc(C)c1NC(=O)N(C)C[C@@H]1Oc2ccc(NC(=O)NC(C)C)cc2C(=O)N([C@H](C)CO)C[C@@H]1C,2.6,4.3,-1.8,-6.5
COCC(=O)N(C)C[C@H]1Oc2ncc(-c3ccc(F)cc3)cc2C(=O)N([C@@H](C)CO)C[C@H]1C,-1.5,-9.1,0.8,-0.4
O=C(Cc1ccncc1)NCC[C@@H]1CC[C@@H](NC(=O)Nc2ccc(F)cc2)[C@H](CO)O1,-1.0,-7.7,-1.1,-1.8
C[C@@H]1CN([C@H](C)CO)C(=O)c2cc(C#Cc3ccccc3F)cnc2O[C@@H]1CN(C)C(=O)Cc1ccccc1,0.9,-2.6,7.5,2.5
O=C(Nc1cccc(-c2nc3ncccc3o2)c1)c1ccc2c(c1)OCO2,-5.0,-7.9,0.4,0.5
COc1ccc2c3c([nH]c2c1)[C@@H](CO)N(Cc1ccccc1F)CC31CCN(CC2CC2)CC1,3.8,29.9,4.4,10.3
CCCCCCCCN1C(=O)[C@H](CC(=O)N2CCSCC2)C[C@@]2(C(=O)OC)CC(C)(C)CC=C12,1.1,2.6,-0.1,-1.2
C[C@@H]1CCCCO[C@@H](CN(C)S(=O)(=O)c2ccc(Cl)cc2)[C@H](C)CN([C@@H](C)CO)C(=O)c2cc(NC(=O)Cc3ccccc3)ccc2O1,0.6,-0.9,0.3,3.0
Cc1ccc(S(=O)(=O)Nc2ccc3c(c2)C(=O)N([C@H](C)CO)C[C@H](C)[C@H](CN(C)S(C)(=O)=O)OCCCC[C@H](C)O3)cc1,-2.3,-1.4,-0.1,0.4

# New compounds follow
SMILES,Ecoli rRNA inh,Ecoli rRNA inh OD600,Ecoli rRNA inh RFP,AF4-AF9 inh
CCCCN(C=O)c1c(CC)nc2ccc(C(=O)NCc3cccs3)cn12,-1.2,-4.2,0.3,-1.6
CCOc1ccc(S(=O)(=O)N2CCC(C(=O)Nc3ccc(C)c(S(=O)(=O)N4CCOCC4)c3)CC2)cc1,3.6,3.9,3.6,-4.1
CCOC(=O)C1=CCC(c2ccccc2Cl)N(S(=O)(=O)c2ccc(C)cc2)C1 (configuration not stated),-1.9,-18.5,-1.8,-1.6
CNC(=O)C[C@@H]1CC[C@H]2[C@H](COc3ccc(NC(=O)c4ccc(OC)cc4)cc3C(=O)N2C)O1,-1.3,1.7,0.0,-0.2
COc1ccc(NC(=O)N(C)C[C@@H]2Oc3ncc(C#CC(C)C)cc3C(=O)N([C@H](C)CO)C[C@@H]2C)cc1,-2.5,-8.2,-1.4,-0.8
C[C@@H]1CN([C@@H](C)CO)C(=O)c2cccc(NS(=O)(=O)c3cn(C)cn3)c2O[C@H]1CN(C)S(=O)(=O)c1cn(C)cn1,-0.8,9.0,1.4,0.1
O=C(c1ccco1)N1CCN(C2CN(Cc3ccccc3)S(=O)(=O)C2)CC1 (configuration not stated),9.0,4.7,-1.1,1.4
COc1ccc(-c2ccc3n(c2=O)C[C@@H]2[C@@H](CO)[C@H](C(=O)NC4Cc5ccccc5C4)N[C@H]32)cc1,-8.7,-15.1,7.7,-9.6
CC=Cc1ccc2n(c1=O)C[C@@H]1[C@@H](CO)[C@H](C(=O)N(C)C)N(CC3CCCC3)[C@H]21 (mixture of isomers),3.4,10.5,0.9,-5.6
COc1cc(CC(=O)N2c3ccccc3N=C(c3ccccc3)C2C(=O)NCc2ccccc2)cc(OC)c1 (configuration not stated),0.9,-0.2,-1.0,2.4
C/C=C/c1ccc2c(c1)O[C@@H](CN(C)C(=O)Cc1ccncc1)[C@H](C)CN([C@@H](C)CO)S2(=O)=O,2.6,2.1,-0.2,2.9
COc1ccc(NC(=O)N(C)C[C@@H]2OCc3ccccc3-c3ccccc3C(=O)N([C@@H](C)CO)C[C@@H]2C)c(OC)c1,-1.4,-1.7,1.3,1.0
CC(C)CC#Cc1ccc2c(c1)O[C@H](CN(C)S(=O)(=O)c1ccc(F)cc1)[C@@H](C)CN([C@@H](C)CO)S2(=O)=O,-3.9,1.1,-3.5,-1.1
C/C=C/c1ccc([C@H]2[C@H](CO)N[C@H]2CN(CC(C)C)C(=O)c2ccccn2)cc1,-3.4,-2.2,3.4,7.5
Cc1ccccc1S(=O)(=O)N1CC(=O)N2[C@@H](CO)[C@@H](c3ccc(C#CC4CC4)cc3)[C@@H]2C1,1.1,-2.2,0.3,-3.4
COCC(=O)N1[C@@H]2c3ccc(-c4cccnc4)c(=O)n3C[C@@H]2[C@@H](CO)[C@@H]1C(=O)Nc1ccccc1,1.2,4.7,-0.2,0.0
CCCN(C)C[C@@H]1OCc2cn(nn2)CCCC(=O)N([C@H](C)CO)C[C@@H]1C,1.3,1.6,-3.7,-16.0
CN(C)C(=O)c1cccc(-c2ccc(C3[C@H]4CNC[C@@H]3N4Cc3nccs3)cc2)c1 (some centres not stated),2.7&4.5,0.6&4.2,-2.8&-3.0,2.2&1.3
O=C(C[C@H]1CC[C@H]2NC[C@H](O)COC[C@@H]2O1)Nc1nccs1,6.3,23.0,1.7,-0.5
COc1cccc(C(NC(C)=O)c2nc(-c3ccncc3)cs2)c1 (configuration not stated),-6.9,-30.8,4.0,-5.0

# From PubChem BioAssay

# A portion of the library. The share of hits here may be higher or lower than overall.
